Rango release inh: prevents RanGTP from dissociating the Rango-importin beta complex; Biochemical FRET Rango-importin beta, RanGTP-induced dissociation; 340,000 compounds, 0.071% hits; Potency, µM (series often up to 46.1 µM), for the others: at the top dose activity change, negative = inhibition; O95149+P62826; active means falling FRET ratio curve, often poorly fitted, with flat reads before Ran was added; inconclusive means other falling curves, or compound fluorescence or quenching; inactive means flat or rising ratio curve;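 note: potency is the fitted concentration of half-maximal effect; % of control where 0% means no effect; nearly all actives have a fitted effect of over 45% in size; -100% = wells without RanGTP and RCC1; the record marks most hits as doubtful in a second field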
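Two FRET readings bracket the reaction: one 5 min after compound meets Rango–importin beta, another 45 min after RanGTP-RCC1 (0.6 uM Ran, 0.2 uM RCC1, 2 mM GTP) is added. Only the second defines inhibition.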
miR-21 reporter: raises the signal of a miR-21 reporter | HeLa miR-21 FLuc reporter, luciferase, 48 h | Potency, µM (titrated, usually from 38.3 µM), without a hit: top-dose reporter change, positive = more light | 340,000 tested, under 10 active; active = well fitted rising curve with a large enough effect; inconclusive = small, poorly fitted or top-dose-only effect; inactive = no such curve, though single readings can be large or run the other way;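 note: % of control where 0% means no effect; miR-21 action dims this reporter so a rising signal means less miR-21 action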
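HeLa cells endogenously expressing miR-21, stably carrying CMV-driven firefly luciferase with a downstream miR-21 binding site, 2000 cells/well. Titrations up to approximately 40 uM, 48 hours; luciferase luminescence read.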
GLA inh pH 4.5: blocks human alpha-galactosidase A at pH 4.5; P06280; purified enzyme, 4-MU-alpha-Gal fluorescence, pH 4.5; activity change, negative = inhibition, % at 105 µM; 230,000 tested, under 10 active; AID 1467; inconclusive = small, poorly fitted or top-dose-only inhibition, or a rising curve; inactive = flat fitted curve, though single readings scatter; no compound was filed as active;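 note: 0% = full activity with enzyme and -100% = basal without enzyme; dose as in the result columns while the protocol names 77 µM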
Rango-impB inh: prevents formation of the Rango-importin beta complex; AID 540263; Rango CFP/YFP FRET sensor + importin beta, 45 min; Potency, µM (series often up to 92.2 µM), for inactives: at the top dose inhibition of complex formation; 340,000 compounds, 0.031% hits; active = rising FRET ratio curve, often small or poorly fitted; inconclusive = mostly compound fluorescence or quenching in the first reads; inactive = flat curves in all reads;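 note: potency is the fitted concentration of half-maximal effect; 0% = DMSO wells and 100% = buffer wells lacking importin beta; nearly all actives have a fitted effect of over 15% in size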
Target sequence (Q14974 whole entry, looked up): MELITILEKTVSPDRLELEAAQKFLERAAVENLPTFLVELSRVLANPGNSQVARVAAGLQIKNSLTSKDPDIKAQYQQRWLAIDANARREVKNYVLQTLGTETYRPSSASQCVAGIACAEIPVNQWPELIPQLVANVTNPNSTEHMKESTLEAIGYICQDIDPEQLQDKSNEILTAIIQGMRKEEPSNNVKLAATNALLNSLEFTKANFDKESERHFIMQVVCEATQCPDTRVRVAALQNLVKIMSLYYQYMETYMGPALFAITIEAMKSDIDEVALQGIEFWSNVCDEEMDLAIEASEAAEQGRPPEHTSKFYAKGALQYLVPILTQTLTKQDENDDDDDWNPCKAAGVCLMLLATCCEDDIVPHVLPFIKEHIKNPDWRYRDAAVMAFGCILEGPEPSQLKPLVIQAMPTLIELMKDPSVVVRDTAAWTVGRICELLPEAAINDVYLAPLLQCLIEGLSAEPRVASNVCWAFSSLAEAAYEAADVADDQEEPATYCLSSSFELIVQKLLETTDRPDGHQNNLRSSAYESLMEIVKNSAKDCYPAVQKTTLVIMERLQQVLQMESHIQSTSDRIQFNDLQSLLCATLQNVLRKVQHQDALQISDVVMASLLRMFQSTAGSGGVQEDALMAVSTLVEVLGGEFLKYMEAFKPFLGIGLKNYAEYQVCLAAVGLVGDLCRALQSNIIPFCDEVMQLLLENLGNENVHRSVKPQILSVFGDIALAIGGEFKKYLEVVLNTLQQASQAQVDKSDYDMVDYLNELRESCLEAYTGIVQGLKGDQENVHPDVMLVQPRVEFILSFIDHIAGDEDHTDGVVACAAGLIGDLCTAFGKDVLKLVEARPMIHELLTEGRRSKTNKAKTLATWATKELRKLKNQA
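Inhibition scored from the CFP 486 nm/YFP 530 nm FRET ratio 45 min after adding 0.125 microM importin beta to 50 nM Rango biosensor preincubated 5 min with compound (room temperature, PBS with DTT, Tween-20, BSA). No-importin wells as positive control.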
Starred values were filed as active, the others as inactive; ? = inconclusive; nt = not tested or not shown; & = joins results of further samples; [ ] = dose if it differs, or a comment. Not all compounds are listed; the hit share may differ from the screen's.

SMILES | Rango release inh | miR-21 reporter | GLA inh pH 4.5 | Rango-impB inh
O=C(/C=C/c1ccccc1)c1ccccc1O | -5.7% | -9.4% | -6.4&-5.2 | 0.3%
O=C1Nc2ccc(Br)cc2/C1=N/N=C/C1=C(N2CCOCC2)C(=C\c2ccccc2)/CC1 | -25.1% | 1.9% | -1.8 | 1.3%
Cc1cnc(C(=O)OC(C(=O)c2ccccc2)c2ccccc2)cn1 (stereo not given) | -0.7% | nt | nt | -1.9%
CCc1ccc(CCN2C(=O)c3ccccc3C2=O)nc1 | -1.4% | 2.8% | 4.1 | -2.6%
Cc1nc(CN(C)C(=O)C2CCC(=O)N(CCc3cccc(F)c3)C2)cs1 (stereo not given) | 0.7% | -0.5% | nt | -2.1%
Cc1cc(F)c(F)c(C(=O)N2CCC(C)CC2)c1Cl | 29.1% | -6.3% | 4.6 | -0.8%
Cc1cccc2cc(/C=N/NC(=O)c3ccncc3)c(Cl)nc12 | 7.9% | -0.4% | 6.0 | 0.2%
O=C(CNC(=O)c1cccc(OC(F)F)c1)Nc1ccc(Cl)cc1 | 11.9% | -0.8% | nt | -3.0%
O=C(N[C@@H](Cc1ccccc1)C(=O)O)c1ccc(C(F)(F)F)cc1 | -9.3% | -0.7% | -5.4 | 0.6%
CC1CCc2sc(C(=O)Nc3ccc(C(N)=O)cc3)cc2C1 (stereo not given) | 0.4% | -48.6% | -1.0 | ?
CCOC(=O)Cc1[nH]nc2c1C(Cc1ccccc1)C(C#N)=C(N)O2 (stereo not given) | -8.9% | -0.2% | -5.1 | ?
CCOC(=O)c1cc[nH]c1CC(=O)NC | -0.3% | -1.5% | -19.4 | -0.8%
CCOc1ccc(CN(C(=O)c2ccccn2)c2ccc(OC)c(Cl)c2)cc1 | 7.8% | -9.9% | nt | 0.3%
COc1ccc(Cn2ccnc2)cc1Br | 7.5% | -16.6% | 4.4 | -1.4%
Cc1ccc(COc2ccccc2-c2cc(C(=O)N/N=C/c3cccnc3)[nH]n2)cc1 | 14.3% | 18.3% | -1.3 | -3.5%
CC(C)C(=O)O/N=C(\N)c1ccc(Oc2ccc(Cl)cc2)c([N+](=O)[O-])c1 | -10.2% | -17.3% | -4.1 | ?
Cc1csc(C(=O)O)c1NC(=O)c1c(Cl)cccc1Cl | 0.2% | 3.3% | nt | -1.0%
COc1cc(C(=O)NC2CC3CCCC(C2)N3C2CC2)cc(OC)c1OC (stereo not given) | 0.3% | -3.1% | -5.2 | 1.1%
CSc1nc(N)n2nc(-c3ccc(Cl)cc3)cc2n1 | -8.5% | -63.2% | 0.8 | -2.4%
Cc1cc(C)n(-c2cccc(CN3CCC(CO)(Cc4ccccc4)CC3)c2)n1 | -8.7% | -1.9% | -8.3 | -0.5%
COc1cccc(-c2nc(CS(=O)(=O)CC(=O)Nc3cc(F)ccc3F)c(C)o2)c1 | 14.1% | 13.5%&26.0% | nt | 0.1%
O=C(NCCC(=O)N1CCCCCCC1)c1ccc(Br)cc1 | 0.4% | nt | nt | -2.5%
CCCCC(=O)OCc1nc2ccccc2s1 | -11.6% | -17.9% | -1.7 | 0.0%
CCc1ccc2c(c1)cc(CN(Cc1ccco1)C(C)=O)c1nnnn12 | 7.1% | -6.5% | -0.6 | 1.0%
COc1ccc(CNc2ncnc3cc(OC)c(OC)cc23)cc1 | 15.8% | 0.6% | 6.7 | -0.2%

Some entries already given with just GLA inh pH 4.5, Rango-impB inh and miR-21 reporter:
compound | GLA inh pH 4.5 | Rango-impB inh | miR-21 reporter
CCOc1ccc(CN(C(=O)c2ccccn2)c2ccc(OC)c(Cl)c2)cc1 | nt | 0.3% | -9.9%
Cc1cnc(C(=O)OC(C(=O)c2ccccc2)c2ccccc2)cn1 (stereo not given) | nt | -1.9% | nt
CCCCC(=O)OCc1nc2ccccc2s1 | -1.7 | 0.0% | -17.9%
Cc1nc(CN(C)C(=O)C2CCC(=O)N(CCc3cccc(F)c3)C2)cs1 (stereo not given) | nt | -2.1% | -0.5%

Continuation.
SMILES | Rango release inh | miR-21 reporter | GLA inh pH 4.5 | Rango-impB inh
O=C1CC(=O)N(Cc2cccs2)C(=O)N1 | -19.4% | -8.1% | -3.2 | ?
Cc1sc2nc(CN3CCCC3)nc(N3CCN(C(=O)c4ccco4)CC3)c2c1C | 1.9% | -6.4% | -2.6 | -4.7%
CC(=O)C1=C(O)C(=O)N(CCc2c[nH]c3ccccc23)C1c1ccccc1 (stereo not given) | 0.0% | -11.2% | -15.4 | -1.7%
Cc1cc(=O)cc(C)n1-c1ccc2c(c1)nc(C)n2-c1ccccc1 | -1.4% | 4.4% | -5.9 | 0.4%
Cc1cccc2sc(NC(=O)CCNS(=O)(=O)c3cccs3)nc12 | 18.0% | 18.2% | -4.2 | 0.1%
CC12C(=O)N(NC(=O)c3ccncc3)C(=O)C1C1C=CC2C1 (stereo not given) | 0.1% | 1.3% | 1.2 | 0.1%
O=C(Nc1ccc(Cl)cc1)C1c2cccc[n+]2CC(=O)N1Cc1ccc2c(c1)OCO2 (stereo not given) | -7.4% | -18.8% | 3.9 | ?
Cc1nc(NCC2CCCO2)c2nnn(Cc3c(F)cccc3Cl)c2n1 (stereo not given) | -5.0% | -10.4% | 7.6 | -1.3%
O=C(CC12CC3CC(CC(C3)C1)C2)NCc1ccncc1 | 1.3% | -13.6% | 7.5 | 4.2%
CCCCNc1nc(N)nc(-c2cc(Cl)ccc2O)n1 | 11.7% | -71.9% | -5.9 | -2.7%
NC(N)=NC1=NC(=O)C(Cc2ccccc2)S1 (stereo not given) | -9.1% | -13.4% | -4.2 | ?
Cc1ccc(F)cc1NC(=O)CCNC(=O)c1ccc([N+](=O)[O-])cc1 | 3.6% | 0.2% | nt | 5.3%
C=CCSc1nc(-c2ccc3c(c2)OCO3)cc(C(F)(F)F)c1C#N | -18.0% | 1.1% | 12.3 | -2.9%
C#CC(=O)CC1(CN(Cc2ccccc2)C(=O)OC(C)(C)C)CCCCC1 | 1.7% | nt | nt | 6.6%
CCOc1cc(/C=N\NC(=O)c2ccc(C)nc2)cc([N+](=O)[O-])c1O | 7.4% | -0.1% | -2.2 | 1.0%
CC(Sc1ccc(Cl)cc1)C(=O)NCc1cccnc1 (stereo not given) | 24.8% | 0.8% | 0.2 | -1.0%
CC(/C=N/NC(=O)Cc1cccs1)=C\c1ccccc1 | -8.9% | -77.4% | -4.5 | 0.1%
CC1CC(C)CN(CCOCCSc2ccccc2)C1 (stereo not given) | 16.1% | 0.5% | -11.0 | -1.6%
COc1ccc(CCn2c(C)c(C(C)=O)c(C(C)=O)c2C)cc1OC | -7.3% | 2.6% | 2.9 | 4.6%
O=C(/C=C/c1cn(-c2ccccc2)nc1-c1ccc2c(c1)OCCO2)NCCCN1CCOCC1 | 7.9% | 0.4% | 5.8 | -0.9%
CC(C)(C)c1ccc(C(=O)N2CCNC(=O)C2CC(=O)Nc2ccc(F)cc2)cc1 (stereo not given) | 5.3% | 2.2% | nt | 1.7%
CCN1CCN(C(=O)C23CCC(C)(C(=O)C2Br)C3(C)C)CC1 (stereo not given) | 2.0% | -3.0% | -3.1 | -0.7%
O=C1/C(=C/c2ccc(O)cc2)SC(=S)N1Cc1cccnc1 | -4.2% | 0.4% | -11.6 | ?
COC(=O)C1CSC(C(=O)OC)N1C(=O)Nc1ccccc1 (stereo not given) | 10.5% | 2.1% | -18.4 | -0.2%
N#Cc1ccccc1OCC(=O)Nc1cccc(S(=O)(=O)N2CCCC2)c1 | -1.8% | nt | nt | 0.0%

Continued, overlapping the part above by two compounds.
SMILES | Rango release inh | miR-21 reporter | GLA inh pH 4.5 | Rango-impB inh
COC(=O)C1CSC(C(=O)OC)N1C(=O)Nc1ccccc1 (stereo not given) | 10.5% | 2.1% | -18.4 | -0.2%
N#Cc1ccccc1OCC(=O)Nc1cccc(S(=O)(=O)N2CCCC2)c1 | -1.8% | nt | nt | 0.0%
O=C(COC(=O)Cc1ccsc1)NNC(=O)c1ccccc1 | 8.7% | nt | nt | 1.5%
Cn1c(=O)c2c(nc(-n3ccnc3)n2Cc2ccccc2)n(C)c1=O | 9.4% | -4.9% | 10.0 | -0.2%
COc1ccc(C2=Nn3c(nnc3-c3ccccc3Cl)SC2)cc1OC1CCOC1 (stereo not given) | 1.0% | nt | nt | 0.5%
COC(=O)c1c(N)n(-c2ccc(N3CCOCC3)cc2)c2nc3ccccc3nc12 | nt | -17.1% | 11.3 | nt
COc1ccccc1OCCCn1cc(C#N)c2ccccc21 | 5.3% | -25.5% | -14.0 | 0.0%
CN1C(N)=NC(=O)/C1=C/c1ccc(OC(F)(F)F)cc1 | 0.1% | -1.9% | 2.2 | -0.8%
O=C(COc1ccc2ccc(=O)oc2c1)N1CCN(C(=O)C2COc3ccccc3O2)CC1 (stereo not given) | -20.1% | 8.2% | nt | -1.0%
Cc1nc2cccc(C(=O)Oc3ccc([N+](=O)[O-])cc3)c2o1 | -0.3% | -0.7% | -1.9[21.1 µM] | 3.1%
CN(C(=O)COC(=O)c1cc(S(=O)(=O)N2CCOCC2)c(Cl)cc1Cl)C1CCS(=O)(=O)C1 (stereo not given) | 0.0% | 3.9% | -2.4 | 0.6%
O=C(O)CCCNC(=O)c1cccc(C(=O)NCCCC(=O)O)n1 | 7.1% | -1.8% | -2.5 | -3.5%
O=C(CSc1nnc(CNC(=O)C23CC4CC(CC(C4)C2)C3)n1-c1ccccc1)Nc1ccc(F)cc1 | -6.5% | -4.5% | -3.7 | 1.1%
FC(F)(F)c1cc(-c2cccs2)n[nH]1 | 14.4% | 0.2% | -1.8 | 1.4%
CC1CCc2nn(CC(=O)N3CCN(C(=O)c4ccco4)CC3)cc2C1 (stereo not given) | 7.7% | -2.9% | -5.0 | 3.0%
O=C(c1c(O)c2ccccc2oc1=O)C1CCC1 | 1.5% | -5.6% | -1.7 | 1.3%
COc1ccc(NC(=O)/C=N/O)cc1 | 0.9% | -10.0% | -0.5 | 2.2%
CNC(=O)c1ccsc1NC(=O)c1coc2ccccc2c1=O | -9.5% | -4.9% | 3.7 | 1.6%
O=C(CSc1nnnn1-c1ccccc1)CC(=O)Nc1ccc(Cl)cc1 | -11.9% | 17.7% | -12.8 | -2.8%
Cc1cnc(NS(=O)(=O)c2ccccc2)c(C)n1 | -1.3% | -4.1% | nt | -2.7%
O=C(Nc1cc(Cl)c(Cl)cc1Cl)c1cccnc1 | 37.8% | -4.7% | nt | 3.1%
COc1cccc(C(=O)NN=C2CCCC2)c1 | -9.2% | -19.1% | nt | 10.9%
COc1cc(C(=O)Nc2ccc(NC(C)=O)cc2)ccc1OCc1ccccc1 | -0.5% | -2.2% | -15.0 | 1.9%
COc1ccc(OC)c(S(=O)(=O)N/N=C(/C)c2ccc3c(c2)OCO3)c1 | 9.9% | -0.6% | nt | -0.7%
COc1ccc(C(O)P(=O)(OC2CCCCC2)c2ccc(N(C)C)cc2)cc1OC (stereo not given) | -0.2% | 0.5% | 5.4 | 2.5%
Cc1ccc(C(=O)N2CCN=C2SCc2ccc([N+](=O)[O-])cc2)cc1 | -12.0% | -0.2% | -7.0 | ?
CCC(C)n1c(C)nc2c(c1=O)c1nc3ccccc3nc1n2CCC1=CCCCC1 (stereo not given) | 0.7% | -14.4% | 10.5 | 1.3%
CSc1nnc(C)c(=O)n1COC(=O)c1ccc([N+](=O)[O-])cc1 | ? | 4.7% | 5.2 | 6.9%
CCOc1ccccc1CN1CCN(Cc2c[nH]c3ccccc23)CC1CCO (stereo not given) | -9.8% | 6.0% | nt | -0.4%
COc1ccc(CNC(=O)C2CCN(S(=O)(=O)c3cc(OC)ccc3OC)CC2)cc1 | 4.2% | 1.1% | -1.8 | 2.8%
CC(OC(=O)c1ccc2ncsc2c1)C(=O)Nc1ncc(Cl)cc1Cl (stereo not given) | 9.5% | -4.6% | -0.4 | -5.3%

Copied from the results shown (4 entries):
SMILES | Rango release inh | miR-21 reporter | GLA inh pH 4.5 | Rango-impB inh
Cn1c(=O)c2c(nc(-n3ccnc3)n2Cc2ccccc2)n(C)c1=O | 9.4% | -4.9% | 10.0 | -0.2%
COc1ccc(C2=Nn3c(nnc3-c3ccccc3Cl)SC2)cc1OC1CCOC1 (stereo not given) | 1.0% | nt | nt | 0.5%
COC(=O)c1c(N)n(-c2ccc(N3CCOCC3)cc2)c2nc3ccccc3nc12 | nt | -17.1% | 11.3 | nt
COc1ccccc1OCCCn1cc(C#N)c2ccccc21 | 5.3% | -25.5% | -14.0 | 0.0%

High-throughput results from PubChem.
